KCNQ2 enhance = enhances the rat KCNQ2 potassium channel | CHO-K1 KCNQ2, FluxOR thallium flux fluorescence; active compounds read high | B-score at 10 µM | AID 2239 | actives 0.54% (n = 310,000) | O88943;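 active means fluorescence ratio B-score at least 3 SD of library B-scores, with initial fluorescence B-score within 3 SD, cut at about 5.3 in these data; same plate scores as AID 2156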;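 further: B-score of peak minus minimum over baseline fluorescence ratio after K+ and Tl+ stimulus; positive B-score means potentiation of KCNQ2 with more thallium influx and brighter signal; only the inactives scoring about 0 or higher are listed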
Target sequence (O88943 whole entry, looked up): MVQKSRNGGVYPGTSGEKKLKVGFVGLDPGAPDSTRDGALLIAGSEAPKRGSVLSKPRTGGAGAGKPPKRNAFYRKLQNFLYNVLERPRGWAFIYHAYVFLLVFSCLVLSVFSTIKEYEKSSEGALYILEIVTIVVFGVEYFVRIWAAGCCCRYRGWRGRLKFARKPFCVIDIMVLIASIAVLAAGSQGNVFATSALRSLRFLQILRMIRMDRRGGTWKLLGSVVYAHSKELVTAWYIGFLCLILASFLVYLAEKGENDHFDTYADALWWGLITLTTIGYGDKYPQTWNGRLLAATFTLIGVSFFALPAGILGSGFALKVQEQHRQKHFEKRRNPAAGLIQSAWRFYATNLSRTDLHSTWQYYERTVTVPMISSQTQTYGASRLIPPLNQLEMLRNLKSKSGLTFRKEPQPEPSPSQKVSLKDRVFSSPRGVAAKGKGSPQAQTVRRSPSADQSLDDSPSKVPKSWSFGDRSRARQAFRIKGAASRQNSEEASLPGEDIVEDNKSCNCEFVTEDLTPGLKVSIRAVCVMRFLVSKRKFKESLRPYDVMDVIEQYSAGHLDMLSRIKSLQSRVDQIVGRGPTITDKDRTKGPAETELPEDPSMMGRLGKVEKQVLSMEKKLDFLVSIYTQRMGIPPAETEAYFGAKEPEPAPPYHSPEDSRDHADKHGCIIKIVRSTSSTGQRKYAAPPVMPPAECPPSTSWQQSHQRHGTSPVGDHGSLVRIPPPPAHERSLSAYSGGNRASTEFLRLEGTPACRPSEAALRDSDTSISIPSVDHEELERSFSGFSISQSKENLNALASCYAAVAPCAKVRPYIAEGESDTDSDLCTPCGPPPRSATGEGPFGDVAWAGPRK
KCNQ2 enhance baseline = also measured in KCNQ2 enhance; calls as there; B-score; compound at 10 µM; measured here: initial fluorescence intensity artifact check;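 brightness before thallium and not channel activity; 0 = typical well and far values either way flag optical interference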
The depositor's hits bear a star; x = not tested or not shown. A portion of the library. The share of hits here may be higher or lower than overall.

SMILES	KCNQ2 enhance	KCNQ2 enhance baseline
Cc1ccccc1-c1nc(Cc2ccc(Cl)cc2)no1	0.41	2.29
CCN(CC)S(=O)(=O)N1CCC(C(=O)NC(C)CCc2ccccc2)CC1 (stereo not given)	0.6	-1.09
O=C(CCc1c[nH]c2ccccc12)NCC1CCCO1 (stereo not given)	1.64	1.61
CC1CCc2sc(C(=O)NNC(=O)c3ccncc3)cc2C1 (stereo not given)	0.74	-1.61
CCOc1ccc(OCCC(=O)NNC(=O)c2ccccc2Cl)cc1	0.17	-0.09
Oc1ccc(-c2csc(Nc3ccccn3)n2)cc1	0.46	0.27
Cc1ccc(C2CC(c3cccc(C)c3)n3nc(N)nc3N2)cc1 (stereo not given)	0.15	-1.47
Cc1cc(=O)n2c(sc3ccccc32)c1C#N	0.48	0.08
O=C1Nc2cc(C(=O)NCC3CCCO3)ccc2S/C1=C/c1ccccc1F (stereo not given)	0.22	-0.01
O=C(NCCc1c[nH]c2ccccc12)OCCSS(=O)(=O)O	0.76	1.42
N=c1ccccn1CC(O)COc1ccccc1 (stereo not given)	0.53	0.64
O=C1CC(NC23CC4CC(CC(C4)C2)C3)C(=O)N1c1ccc2c(c1)OCO2 (stereo not given)	2.9	0.98
NC(=S)Nc1cccc(Cl)c1	0.28	-0.22
CC(=O)Nc1ccc(Cl)c(-c2nc3ncccc3o2)c1	0.02	-1.39
Cc1cccc(N(Cc2cc3ccc(C)cc3[nH]c2=O)S(=O)(=O)c2ccccc2)c1	0.67	-0.03
CCOCCN1CCN(c2c(C)c(C)nc3cc(-c4cc(OC)cc(OC)c4)nn23)CC1	0.87	-2.22
O=C1c2ccccc2C(=O)N1CCc1nc2ccccc2c(=O)n1CCCn1ccnc1	0.02	1.5
Cc1nc2ccc(NC(=O)C(F)(F)F)cc2o1	0.43	0.41
COc1ccc(-c2cc3c(=O)n(CC(=O)NCCCN4CCC(N5CCCCC5)CC4)nc(C)n3n2)cc1	0.03	-0.49
COc1ccc(/C(O)=C2/C(=O)C(=O)N(Cc3ccco3)C2c2cccs2)cc1 (stereo not given)	0.39	-0.68
CCOC(=O)c1sc(=S)n(C)c1NC(=O)c1ccc(C(C)(C)C)cc1	0.5	-1.12
O=c1cc(NCc2ccccc2)c2ccccc2o1	0.55	-0.79
CC(C)(C)c1cc(-c2nc(N)nc(N)n2)cc(C(C)(C)C)c1	3.78	-0.44
Cc1cc(NC(=O)CN2C(=O)NC(C)(c3ccc(Cl)cc3)C2=O)no1 (stereo not given)	0.73	-0.11
COc1ccc(Cc2nc3ccc(C(=O)N(C)CCc4cnn(C)c4)cc3o2)cc1OC	0.88	-0.66
CCC(C)[C@H]1COCCS(=O)(=O)N1Cc1ccccc1 (stereo not given in full)	0.39	-0.01
Cc1ccc(S(=O)(=O)N2CCN(C(=O)c3cccs3)CC2)c(C)c1	0.47	-0.66
COc1ccccc1NC(=O)COC(=O)/C=C/c1ccccc1[N+](=O)[O-]	2.28	-0.61
CN(CCCNC(=O)C1CCC(=O)N1Cc1ccccc1Cl)c1ccccc1 (stereo not given)	0.07	-0.67
CC(Oc1ccccc1)C(=O)NN1Cc2ccccc2C1=N (stereo not given)	0.67	-0.26
CCOc1ccc(C(F)(F)F)cc1NC(C)=O	2.14	-0.95
CN(C)C(=C(C#N)C#N)N1CCN(c2ccc(Cl)cc2)CC1	1.15	-0.87
Cn1cccc1Cc1nnc(SCC(=O)Nc2nccs2)n1C	0.45	0.32
CCc1ccc(NC(=O)c2c(Cl)nc(C)c(Cl)c2C)cc1	0.56	0.86
CC(=O)c1ccc(N2CCN(S(=O)(=O)c3cc4c(cc3C)NC(=O)CO4)CC2)cc1	2.81	0.04
Cc1cccc(C)c1NC1=C(Cl)C(=O)OC1OC(C)C (stereo not given)	0.32	1.71
COc1cccc(-c2c(C#N)c(N)nc3c2c(=O)nc2sccn23)c1	0.21	0.31
Cc1[nH]c2ccccc2c1C(=O)C(=O)N1CCN(C)CC1	0.49	1.75
O=C(Nc1cccnc1)c1ccc(Br)s1	4.65	-0.74
CCN(CC)S(=O)(=O)c1ccc(C(=O)NCc2cccs2)cc1	0.22	-0.36
CC1CC(=O)N(c2ccc(NCc3ccccc3Cl)c([N+](=O)[O-])c2)C1=O (stereo not given)	0.39	1.35
Cc1cccc(OCC(O)Cn2c(=N)n(CCN3CCOCC3)c3ccccc32)c1 (stereo not given)	2.53	0.09
COc1ccc(Cc2nnc(NC(=O)C3CCCO3)s2)cc1 (stereo not given)	2.15	-0.18
COc1ccc(CN(C)CC(=O)Nc2c(C)cccc2C)c(OC)c1	0.84	-0.9
CC(=O)Nc1ccc(NC(=O)CN(c2ccc(C34CC5CC(CC(C5)C3)C4)cc2)S(C)(=O)=O)cc1	0.22	-0.47
O=P(c1ccccc1)(c1ccccc1)C(O)c1ccccn1 (stereo not given)	0.29	0.55
O=C(Nc1ccc(N2CCN(C(=O)c3ccco3)CC2)cc1)c1ccc([N+](=O)[O-])cc1Cl	0.24	0.28
CCN(Cc1nc(-c2ccc(OC)cc2)no1)C(=O)c1ccoc1C	0.17	-0.84
O=C(CNC(=O)c1ccccc1)N=Nc1c(O)[nH]c2ccc(Br)cc12	0.05	1.47
CCOc1ccc(C(=O)Nc2ccc(NC(=O)c3ccco3)c(Cl)c2)cc1Br	0.05	0
Cn1c(NC(=O)c2ccccc2NC(=O)C(C)(C)C)nc2ccccc21	0.9	0.47
Nc1nc(NCc2ccco2)nc(Nc2cccc(F)c2)c1[N+](=O)[O-]	1.46	0.22
C/C(=N\NC(=O)Cc1ccccc1[N+](=O)[O-])c1cccnc1	0.48	0.89
C=CCSc1nncn1/N=C/c1ccc(OC)cc1	1.62	0.13
Cc1cccc(N(Cc2ccccc2)C(=O)c2cc(S(=O)(=O)N3CCOCC3)ccc2F)c1	0.42	0.35
Cc1cc(C(F)(F)F)n2nc(-c3cccs3)cc2n1	0.44	0.67
COCCn1c(=N)c(C(=O)NCCc2ccccc2)cc2c(=O)n3cccc(C)c3nc21	0.25	-2.22
Nc1ccc(CC2SC(=O)NC2=O)cc1 (stereo not given)	0.26	1.15
Cc1cc(OCCCn2ccnc2)ccc1C(C)C	0.83	-0.16
O=C(NCCC1CC1(Cl)Cl)c1ccc([N+](=O)[O-])cc1 (stereo not given)	1.15	-1.12

(further entries)
SMILES	KCNQ2 enhance	KCNQ2 enhance baseline
O=C(CSc1nc2ccccc2s1)NCCCN1CCOCC1	1.39	0.58
Cc1cc(C)cc(N2CCCn3c2nc2c3c(=O)[nH]c(=O)n2C)c1	0.77	1.57
Cc1[nH]nc(N=CC2=C(O)CC(C)(C)CC2=O)c1-c1ccccc1	0.01	-0.1
Cc1cc(C)nc(NC(=O)c2ccc(C)c([N+](=O)[O-])c2)n1	0.32	-2.43
COc1ccccc1Nc1nnc(SCc2nnc(-c3cc(OC)c(OC)c(OC)c3)o2)s1	0.68	-0.81
O=C1NC(=O)/C(=C\c2ccc(OCc3cccc(C(=O)O)c3)c(Cl)c2)N1	0.02	0.64
CCOc1ccc2[nH]c3nc(SCC(=O)NC4CC4)nnc3c2c1	0.94	0.01
CCOC(=O)C1(Cc2ccccc2C(F)(F)F)CCN(CC(O)CO)CC1 (stereo not given)	0.73	-0.28
CCC1CCCCN1Cc1nc2ccccc2c(=O)n1CC(C)=O (stereo not given)	1.52	-0.05
COc1cccc(N2CCN(C(=O)c3ccc(Cl)c(NC4=NC5CS(=O)(=O)CC5S4)c3)CC2)c1 (stereo not given)	1.75	2.15
COc1ccc(CC(=O)Nc2ccc(C(=O)NC(C)(C)C)cc2)cc1OC	1.48	-0.89
CCOC(=O)C1C(c2cccs2)NC(=O)N(C)C1(O)C(F)(F)F (stereo not given)	0.38	-1.46
Cc1nn(-c2cccc(Cl)c2)c2nc(C(F)(F)F)[nH]c(=O)c12	2.46	-2.29
CCC1CN(S(=O)(=O)c2ccc3c(c2)NC(=O)CC(=O)N3)c2cc(Cl)ccc2O1 (stereo not given)	0.01	-0.97
COCCOC(=O)C1=C(C)NC(SCC(=O)NC(C)(C)C)=C(C#N)C1c1ccco1 (stereo not given)	0.1	-0.05
CCOCc1cnc(C)nc1NCC(=O)c1c(C)[nH]c2cc(C)ccc12	1.14	0.1
C=CCN(C(=O)c1csnn1)C(C(=O)NC(C)(C)C)c1ccncc1 (stereo not given)	0.05	0.54
Cc1ccc(-n2ncc3c(=O)n(CC(=O)N4CCCc5ccccc54)cnc32)cc1C	0.01	-1.51
O=C(CN(CCc1ccccc1)C(=O)Cn1nnc(-c2cccs2)n1)NCc1ccco1	0.85	-0.02
CCOc1cc(NC(=O)C2CCCCC2)c(OCC)cc1NC(=O)c1ccco1	0.52	-0.28
Cc1ccc2cc(CN(CCCO)S(=O)(=O)c3cccc4nsnc34)c(=O)[nH]c2c1C	0.27	1.53
O=C(NC(=S)Nc1ccccc1N1CCCCC1)c1ccco1	3.69	-0.76
O=C(Cn1c(-c2cscn2)nc2ccccc21)Nc1ccc(Cl)cc1	0.43	0.09
CSc1ncc(CN2CCCCC2C(=O)Nc2ccc(Oc3ccccc3)nc2)cn1 (stereo not given)	0.08	0.1
COc1ccccc1CCC(=O)NNC(=O)c1ccccc1	1.55	0.01
CC(=O)Nc1ccc(N(C(=O)c2ccco2)C(C(=O)NC2CCCC2)c2ccc(N3CCOCC3)cc2)cc1 (stereo not given)	0.64	0.01
CC1(C)Cc2c(sc3nc4n(c(=N)c23)CCC4)CO1	0.75	-0.8
Cc1c(C(=O)N2CCCCC2)c(S(=O)(=O)N2CCc3ccccc32)c(C)n1C	0.92	-0.21
O=C(CSc1nnc(NC(=O)c2ccccc2Cl)s1)NC1CC1	1.02	-1.83
COc1ccc(CNC(=O)C2CCN(S(=O)(=O)c3ccc4c(c3)NC(=O)CO4)CC2)cc1	0.91	-0.62
COc1cc(CNC2CCCCCCC2)cc(Cl)c1OCC(N)=O	0.04	-0.28
O=C(Nc1ccnn1C1CCN(Cc2cccc(OCCO)c2)CC1)C1CCCC1	2.39	-1.03
COc1ccc(C(C(=O)NC2CCCC2)N(CCCO)C(=O)c2snc(C(N)=O)c2N)cc1 (stereo not given)	2	-1.07
Nc1c(C(=O)Nc2ccccc2)nnn1-c1ccc2c(c1)OCCO2	0.13	1.81
O=C(CSc1ccc(Cl)cc1)NNC(=O)c1cccnc1	2.19	-1.8
Cc1cc(NC(=O)c2ccccc2)ccc1NC(=O)c1ccccc1Cl	1.79	-0.99

Quoted at random: 7 compounds from above.
SMILES	KCNQ2 enhance	KCNQ2 enhance baseline
C=CCSc1nncn1/N=C/c1ccc(OC)cc1	1.62	0.13
O=C(NC(=S)Nc1ccccc1N1CCCCC1)c1ccco1	3.69	-0.76
CN(CCCNC(=O)C1CCC(=O)N1Cc1ccccc1Cl)c1ccccc1 (stereo not given)	0.07	-0.67
CCC1CCCCN1Cc1nc2ccccc2c(=O)n1CC(C)=O (stereo not given)	1.52	-0.05
O=C1CC(NC23CC4CC(CC(C4)C2)C3)C(=O)N1c1ccc2c(c1)OCO2 (stereo not given)	2.9	0.98
Cc1cc(C)nc(NC(=O)c2ccc(C)c([N+](=O)[O-])c2)n1	0.32	-2.43
CCc1ccc(NC(=O)c2c(Cl)nc(C)c(Cl)c2C)cc1	0.56	0.86

(list continues)
SMILES	KCNQ2 enhance	KCNQ2 enhance baseline
Cc1ccc(NC(=O)C(=O)NNC(=O)c2cccs2)cc1	10.2*	1.49*
CC(C)c1ccccc1NC(=O)C1CC(=O)N(C2CCCC2)C1 (stereo not given)	1.21	-1.12
C=CCn1c(CCCNC(=O)c2ccccc2OC)nc2ccccc21	0.41	0.46
O=C(CO/N=C/c1c(Cl)cccc1Cl)NNC(=O)c1cccc(Cl)c1	1.04	-0.93
CCOC(=O)C(CCCCOc1cccc(CC)c1)C(=O)OCC	-5.57	x
COc1cccc(C2(O)CCN(C(=O)C3CC3)CC2)c1	0.21	0.47
Cc1cccc(NC(=O)CSc2nc3ccccc3nc2N2CCCC2)c1C	0.12	0.87
CCC(C)(C)n1nnnc1C(c1cccs1)N1CCCCC1 (stereo not given)	0.05	1.03
CS(=O)(=O)c1ccc(N)c(SSc2cc(S(C)(=O)=O)ccc2N)c1	0.23	-0.34
CCCc1nc2ccc(NC(C)=O)cc2c(=O)n1Cc1ccc(Cl)cc1	0.01	0.75
N/C(=N\N=C\c1cccs1)SC1CC(=O)N(c2ccc(Br)cc2)C1=O (stereo not given)	1.05	0.35
CN(C)c1ccc(NC(=O)Cn2ncn3c(cc4ccccc43)c2=O)cc1	1.21	-0.62

The final five compounds of the section before come first, to join the parts.
SMILES	KCNQ2 enhance	KCNQ2 enhance baseline
CCC(C)(C)n1nnnc1C(c1cccs1)N1CCCCC1 (stereo not given)	0.05	1.03
CS(=O)(=O)c1ccc(N)c(SSc2cc(S(C)(=O)=O)ccc2N)c1	0.23	-0.34
CCCc1nc2ccc(NC(C)=O)cc2c(=O)n1Cc1ccc(Cl)cc1	0.01	0.75
N/C(=N\N=C\c1cccs1)SC1CC(=O)N(c2ccc(Br)cc2)C1=O (stereo not given)	1.05	0.35
CN(C)c1ccc(NC(=O)Cn2ncn3c(cc4ccccc43)c2=O)cc1	1.21	-0.62
COc1ccccc1/C=C(/NC(=O)c1ccccc1)C(=O)NCCCn1ccnc1	0.52	3.68
Cc1cc(=O)n(CC(=O)NC2CC2)c2c1c(C)nn2-c1ccccc1	0.56	-0.01
CC(=O)c1ccc(NC(=O)c2ccc(CSc3ccccc3)o2)cc1	1.07	1.7
Cc1cccc(NC(=S)NCc2ccc(F)cc2)c1	2.68	-0.59
O=C(NCCCn1ccnc1)C(Cc1ccc([N+](=O)[O-])cc1)N1C(=O)c2ccccc2C1=O (stereo not given)	1.19	-1.23
COCc1cc(N2CCCC2)nc(-c2ccccc2)n1	0.38	0.06
